# CtBP-E1A blk: qHTS Assay for Inhibitors of the CtBP/E1A Interaction; activity change, % (no concentration beside the values); 340,000 compounds, 0.49% hits; CtBP / adenovirus E1A interaction (AlphaScreen); AlphaScreen GST-E1A/His-CtBP binding, 1536-well; active compounds read low; control for the full effect not named in the record; AID 651724, 2012; in the data active means activity change below about -65%; inconclusive means about -30% to -65%; inactive means above about -30%; note: % is set by controls: 0 for no effect and ±100 for the full control effect
#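 Protein mix (5X: 125 nM each GST-E1A, His-CtBP) was incubated with pinned compound 2 h at 37 deg C in dark, in 50 mM Tris pH 8.0 buffer with 300 mM NaCl. Glutathione donor and nickel acceptor beads followed; AlphaScreen signal read after 1 h.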
# PINK1 modulator: A Quantitative High throughput Screen to Identify Chemical Modulators of PINK1 Expression; PINK1 immunofluorescence, high-content cytometry, 24 h; Potency, µM (doses to about 76.6 µM), without a hit: top-dose activation (PINK1 increase), hits mostly activators; 410,000 compounds, 0.2% hits; AID 624263, 2012; active = well fitted activation curve with a large enough effect; inconclusive = small, poorly fitted or top-dose-only effect; inactive = flat fitted curve, though single readings scatter; cell line not stated here;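 note: potency is the fitted concentration of half-maximal effect; % of control where 0% means no effect; nearly all actives have a fitted effect of over 65% in size; a mitochondrial uncoupler was the plate control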
#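 PINK1 protein level read as immunofluorescence by microplate cytometer in a fixed, stained stable cell line after 24 h exposure to five compound concentrations, with CCCP as control.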
# Six1-Eya2 blk: qHTS Assay for Inhibitors of the Six1/Eya2 Interaction. Homeobox protein SIX1 (Homo sapiens) + Protein phosphatase EYA2 (Homo sapiens), …. AlphaScreen GST-Six1/His-Eya2 binding, biochemical; active compounds read low; control for the full effect not named in the record. activity change, % (test concentration not listed). 360,000 compounds, 0.56% hits; in the data active = activity change below about -65%; inconclusive = about -30% to -65%; inactive = above about -30%; note: % is set by controls: 0 for no effect and ±100 for the full control effect
#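 Compounds are tested against tagged Six1 and Eya2 proteins bridged by glutathione donor and nickel acceptor beads; after a one-hour incubation at 37 °C without light, AlphaScreen emission is recorded.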
# TRPML1 blocker: qHTS for Inhibitors of the Human Mucolipin Transient Receptor Potential 1 (TRPML1) | TRPML1-inducible cells, Ca2+ dye fluorescence, FDSS; active compounds read low; inhibition of EC80 agonist-evoked calcium signal | 390,000 compounds, 0.02% hits | activity change, negative = inhibition, % (concentration not given with the values); in the data active means activity change below about -50%; inconclusive means about -30% to -50%; inactive means above about -30%;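 note: stimulus is agonist 54-4 at its EC80 concentration; % is set by controls: 0 for no effect and ±100 for the full control effect; the text of the record puts the active cut at -80%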
# Target sequence (Q9GZU1 whole entry, looked up): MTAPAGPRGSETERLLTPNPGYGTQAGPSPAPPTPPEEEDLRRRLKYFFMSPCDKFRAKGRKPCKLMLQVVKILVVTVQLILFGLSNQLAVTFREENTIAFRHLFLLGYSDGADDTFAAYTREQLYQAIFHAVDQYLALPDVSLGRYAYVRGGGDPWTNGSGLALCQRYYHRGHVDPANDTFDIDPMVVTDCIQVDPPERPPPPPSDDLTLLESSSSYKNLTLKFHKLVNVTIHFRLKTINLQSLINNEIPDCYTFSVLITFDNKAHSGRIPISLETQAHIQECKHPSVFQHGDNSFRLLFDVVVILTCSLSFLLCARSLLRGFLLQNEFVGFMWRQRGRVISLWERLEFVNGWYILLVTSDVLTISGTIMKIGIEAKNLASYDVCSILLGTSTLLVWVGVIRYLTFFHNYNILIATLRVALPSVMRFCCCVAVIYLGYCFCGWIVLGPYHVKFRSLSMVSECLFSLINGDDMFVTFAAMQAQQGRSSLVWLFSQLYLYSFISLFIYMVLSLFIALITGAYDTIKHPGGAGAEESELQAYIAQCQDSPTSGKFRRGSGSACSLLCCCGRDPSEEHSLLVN
#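 TRPML1-DL cells, Tet-induced overnight (~16 h, 37 °C) at 1,500 cells/well, were loaded with Ca8 no-wash dye plus quencher for 45-90 min at room temperature. Compounds were pinned during FDSS kinetic reading; agonist 54-4 at EC80 (4 uM final) then added.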
# D2 agonist: Beta-Arrestin HTS for Positive Allosteric Modulators of the Human D2 Dopamine Receptor: Agonists; DiscoveRx PathHunter D2 beta-arrestin, luminescence, 90 min; 100% = 57 uM dopamine signal; activation, % (no concentration beside the values); 360,000 compounds, 0.084% hits; AID 624465, 2012; in the data active = activation above about 40%; inconclusive = about 15% to 40%; inactive = below about 15%; note: compound concentration not given in the record; the text of the record calls up to 30% inactive
# Target sequence (P14416 whole entry, looked up): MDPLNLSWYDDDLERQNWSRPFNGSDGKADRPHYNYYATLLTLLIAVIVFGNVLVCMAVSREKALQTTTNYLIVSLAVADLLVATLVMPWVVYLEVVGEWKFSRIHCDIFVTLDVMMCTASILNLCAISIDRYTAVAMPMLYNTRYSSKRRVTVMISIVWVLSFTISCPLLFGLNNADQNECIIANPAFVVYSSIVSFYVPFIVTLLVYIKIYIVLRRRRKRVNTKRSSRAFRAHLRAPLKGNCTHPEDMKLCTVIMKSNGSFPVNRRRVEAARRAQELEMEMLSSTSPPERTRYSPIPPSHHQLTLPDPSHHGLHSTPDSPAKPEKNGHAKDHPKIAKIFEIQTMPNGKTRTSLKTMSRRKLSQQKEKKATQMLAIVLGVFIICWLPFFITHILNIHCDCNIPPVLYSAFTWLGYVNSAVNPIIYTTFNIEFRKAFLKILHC
#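 DiscoveRx PathHunter D2 beta-arrestin cells (2,100/well) attached overnight, then compound-stimulated 90 min at 37 C in HBSS/10 mM HEPES/0.1% Tween-20 buffer; beta-galactosidase complementation read by luminescence after 1 h at ambient temperature. Dopamine 57 uM final (EC100) as control.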
# TRPML1 agonist: qHTS for Agonists of the Human Mucolipin Transient Receptor Potential 1 (TRPML1). TRPML1-expressing cells, Ca2+ dye fluorescence, FDSS; host cell line not named in the record; reference of the full effect not given here. activation, % (no concentration beside the values). 410,000 compounds, 0.12% hits. AID 624414, 2012; in the data active = activation above about 50%; inconclusive = about 30% to 50%; inactive = below about 30%; note: 0% is about no effect; the text of the record puts the active cut at 80%
#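 Calcium fluorescence on an FDSS kinetic reader gave the read-out. Tet-induced TRPML1-DL cells were plated overnight, dye-loaded (Ca8 with quencher, 45-90 min, room temperature, dark), then read 110 s after compound addition, and again 110 s after 4uM final 54-4 (EC80).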
# * marks the source's active call; other numbers are inactive results; ? = inconclusive; / = not tested or not shown; [ ] = another dose, or the depositor's remark. This is a random part of the collection, and some 1% of all compounds hit somewhere here.
SMILES,CtBP-E1A blk,PINK1 modulator,Six1-Eya2 blk,TRPML1 blocker,D2 agonist,TRPML1 agonist
O=C(Nc1cc(F)ccc1F)C1COc2ccccc2C1 (stereo not drawn),/,-1.1%,/,2,/,1.2
Cc1c(Cl)cccc1N=C(N)N=C(N)N,-4,1.6%,6,-4,-4.4,1.7
N#CC(C(=O)c1ccccc1)=C1SCCS1,-12,2.3%,2,9,0.5,-0.6
Cn1cccc1CNC(=O)Nc1ccc(Cl)c(Cl)c1,-1,-0.7%,-6,4,-1.1,-0.3
CCc1cccc(NC(=O)CSc2ncc3c(n2)-c2ccc(Cl)cc2N(Cc2ccccc2)S3(=O)=O)c1,/,5.1%,/,-2,/,-0.5
O=C(CCN1C(=O)/C(=C/c2ccc(F)cc2)SC1=S)NCCc1ccc(O)cc1,2,-1.8%,-3,-6,7.9,-0.2
CCS(=O)(=O)Nc1ccc(C2=NN(S(=O)(=O)CC)C(c3cccs3)C2)cc1 (stereo not drawn),2,6.8%,0,36,0.2,-0.4
O=C(NCc1ccc(N2CCCC2=O)cc1)c1ccc(F)cc1,10,1.9%,9,5,-3.0,-0.5
CSc1nc(-c2ccccc2)c(C#N)c(=O)[nH]1,-2,0.4%,-3,/,-7.7,/
C[C@H](CO)N1C[C@H](C)[C@@H](CN(C)C(=O)NC2CCCCC2)Oc2ccc(NC(=O)Cc3ccccc3)cc2C1=O,0,1.1%,3,-10,-1.0,-0.9
CCN(CC)c1ccc(N2C(=O)/C(=C/c3cccnc3)SC2=S)cc1,0,3.5%,8,-16,-0.8,-0.3
Cc1nnc(NC(=O)CSc2n[nH]c(-c3ccccc3)n2)s1,-3,1.3%,-2,5,-4.4,-0.1
CC1(c2ccc([N+](=O)[O-])cc2)Nc2ccccc2S1 (stereo not drawn),?,-0.5%,-27,?,1.3,0.4
Cc1oc(-c2ccc(C(=O)NCc3ccccc3)cc2)nc1CN1CCc2ccccc21,/,-0.1%,/,-10,/,1.4
Cc1ccc(S(=O)(=O)n2c3ccc(Cl)cc3c3nc(C)sc32)cc1,6,5.2%,0,-14,-4.3,2.4
COCCCNC(=O)C1CCC(=O)N(c2ccc3c(c2)OCO3)C1c1ccc(OC)cc1 (stereo not drawn),/,1.2%,1,-3,2.9,0.5
O=C(CNC(=O)c1ccccc1Cl)NCCc1cccs1,-10,1.2%,20,18,-3.1,0.2
Cc1ccccc1CSc1nc2c(sc3ccccc32)c(=O)n1CCCOC(C)C,/,-0.8%,/,11,/,-0.4
O=C(Nc1ccc(Cl)c(Cl)c1)Oc1ccc(NC(=O)c2ccco2)cc1,1,3.4%,5,3,-1.0,-0.3
CCOC(=O)c1nc(Nc2ccc(N3CCC(C)CC3)cc2)c2ccccc2n1,-1,4.6%,?,-9,6.7,-0.1
Cc1ccc(C2Oc3ccccc3C3=C2C(c2cccs2)n2ncnc2N3)cc1 (stereo not drawn),-17,4.9%,-4,-10,1.8,1.2
COC(=O)c1ccc(C)c(NS(=O)(=O)c2ccc(OC)cc2)c1,3,4.9%,21,12,-0.4,0.7
CCCC(c1nnnn1CCC(C)C)N1CCC(C(N)=O)CC1 (stereo not drawn),-1,-1.9%,9,13,1.0,2.3
COCCn1c(SCc2nc3ccccc3c(=O)[nH]2)nc2ccccc2c1=O,5,0.5%,4,-14,-0.7,1.3
O=C(O)CCCCCn1c(SCC(=O)N2CCCC2)nc2ccsc2c1=O,0,7.6%[38.3 µM],2,2,0.8,-0.1
CC1=CC(C)(C)Nc2ccc(OS(=O)(=O)c3ccc(C)cc3)cc21,-18,0.5%[38.3 µM],-21,19,3.5,1.2
Nc1ccn(CC(=O)NCCc2ccccn2)c(=O)n1,-7,0.8%,4,-5,-1.0,-0.3
O=C(NCCCN1CCOCC1)c1ccc(Cl)c(S(=O)(=O)N2CCCCCC2)c1,0,/,13,-10,-3.0,-0.1
O=C(NCc1ccc2c(c1)CCN2C(=O)c1ccccc1)Nc1cc(F)ccc1F,/,1.3%,/,26,/,3.5
COc1ccccc1N(CC(O)COc1ccc(C)cc1)S(=O)(=O)c1ccccc1 (stereo not drawn),-7,4.7%,3,0,0.3,1.1

# Pulled by structure from the list above (2):
SMILES,CtBP-E1A blk,PINK1 modulator,Six1-Eya2 blk,TRPML1 blocker,D2 agonist,TRPML1 agonist
O=C(Nc1ccc(Cl)c(Cl)c1)Oc1ccc(NC(=O)c2ccco2)cc1,1,3.4%,5,3,-1.0,-0.3
O=C(O)CCCCCn1c(SCC(=O)N2CCCC2)nc2ccsc2c1=O,0,7.6%[38.3 µM],2,2,0.8,-0.1

# (continued)
SMILES,CtBP-E1A blk,PINK1 modulator,Six1-Eya2 blk,TRPML1 blocker,D2 agonist,TRPML1 agonist
O=C(NCCNC(=O)c1cccnc1)c1ccc(Br)cc1,9,-0.2%,9,33,-4.1,0.5
COc1ccc(OC)c(C(O)CNC(=O)CN)c1 (stereo not drawn),2,0.2%,-5,-2,-6.2,0.3
Cc1ccc(NC(=O)Cn2nc(C(F)(F)F)c3c2CCC3)cc1C,/,6.2%,/,-3,/,1.2
S=c1[nH]ncn1/N=C/c1ccco1,2,0.4%,3,10,-1.9,-0.5
NC(=O)c1cc(S(=O)(=O)NCc2cccs2)cs1,/,-0.3%,-5,5,1.8,-0.4
CC1(C)CC2(CC(C)(C)NC(=O)N2)NC(=O)N1,-1,-0.8%,4,2,0.5,-0.1
O=C(COc1ccc(Cl)cc1)Nc1nnc(-c2ccco2)o1,-11,1.3%,-15,23,0.8,-0.6
CCOC(=O)c1sc(NC(=O)c2ccc(Br)o2)cc1C,3,12%,-1,0,-0.9,0.3
O=C1CC(C(=O)Nc2ccccc2)N=C(N2CCCCC2)N1 (stereo not drawn),15,-1.5%[38.3 µM],2,5,-3.6,0.0
Cc1cc(-c2ccccc2)nc2cc(C(=O)Nc3ccc(Cl)c(Cl)c3)nn12,/,2.0%,/,12,/,1.1
CC(=O)Nc1ccc(Sc2ccccc2C(=O)N2CCCC2)cn1,3,-0.9%,-3,11,-3.2,0.0
Cc1cccc(CNC(=O)c2sc3ncnc(N(C)C4CCCCC4)c3c2C)c1,/,4.8%,/,21,/,0.9
O=C(c1cccnc1)N1CCCC(Nc2ccc(F)cc2)C1 (stereo not drawn),3,4.2%,1,18,-4.0,-0.4
Cc1[nH]c2c(C(=O)N3CCCC(CCC(=O)NCc4ccccc4F)C3)cccc2c1C (stereo not drawn),7,3.7%,21,6,-5.4,-0.5
CCOc1cc(C(=O)Nc2ccc(S(=O)(=O)Nc3onc(C)c3C)cc2)cc(OCC)c1OCC,2,4.2%,1,3,-2.5,-0.4

# Not a retest: 16 of the compounds above.
SMILES,CtBP-E1A blk,PINK1 modulator,Six1-Eya2 blk,TRPML1 blocker,D2 agonist,TRPML1 agonist
COc1ccccc1N(CC(O)COc1ccc(C)cc1)S(=O)(=O)c1ccccc1 (stereo not drawn),-7,4.7%,3,0,0.3,1.1
O=C(NCCNC(=O)c1cccnc1)c1ccc(Br)cc1,9,-0.2%,9,33,-4.1,0.5
COc1ccc(OC)c(C(O)CNC(=O)CN)c1 (stereo not drawn),2,0.2%,-5,-2,-6.2,0.3
Cc1ccc(NC(=O)Cn2nc(C(F)(F)F)c3c2CCC3)cc1C,/,6.2%,/,-3,/,1.2
S=c1[nH]ncn1/N=C/c1ccco1,2,0.4%,3,10,-1.9,-0.5
NC(=O)c1cc(S(=O)(=O)NCc2cccs2)cs1,/,-0.3%,-5,5,1.8,-0.4
CC1(C)CC2(CC(C)(C)NC(=O)N2)NC(=O)N1,-1,-0.8%,4,2,0.5,-0.1
O=C(COc1ccc(Cl)cc1)Nc1nnc(-c2ccco2)o1,-11,1.3%,-15,23,0.8,-0.6
CCOC(=O)c1sc(NC(=O)c2ccc(Br)o2)cc1C,3,12%,-1,0,-0.9,0.3
O=C1CC(C(=O)Nc2ccccc2)N=C(N2CCCCC2)N1 (stereo not drawn),15,-1.5%[38.3 µM],2,5,-3.6,0.0
Cc1cc(-c2ccccc2)nc2cc(C(=O)Nc3ccc(Cl)c(Cl)c3)nn12,/,2.0%,/,12,/,1.1
CC(=O)Nc1ccc(Sc2ccccc2C(=O)N2CCCC2)cn1,3,-0.9%,-3,11,-3.2,0.0
Cc1cccc(CNC(=O)c2sc3ncnc(N(C)C4CCCCC4)c3c2C)c1,/,4.8%,/,21,/,0.9
O=C(c1cccnc1)N1CCCC(Nc2ccc(F)cc2)C1 (stereo not drawn),3,4.2%,1,18,-4.0,-0.4
Cc1[nH]c2c(C(=O)N3CCCC(CCC(=O)NCc4ccccc4F)C3)cccc2c1C (stereo not drawn),7,3.7%,21,6,-5.4,-0.5
CCOc1cc(C(=O)Nc2ccc(S(=O)(=O)Nc3onc(C)c3C)cc2)cc(OCC)c1OCC,2,4.2%,1,3,-2.5,-0.4

# (cont.)
SMILES,CtBP-E1A blk,PINK1 modulator,Six1-Eya2 blk,TRPML1 blocker,D2 agonist,TRPML1 agonist
O=C(NCc1cccs1)C1CCCN(S(=O)(=O)c2cccs2)C1 (stereo not drawn),-3,0.6%,-5,0,2.8,1.0
COc1ccc(NC(=O)C2CCN(S(=O)(=O)c3ccc4c(c3)CC(C)N4C(C)=O)CC2)cc1OC (stereo not drawn),/,1.0%,4,8,1.5,0.2
CCc1ccc(NC(=S)N2CCN(C)CC2)cc1,1,-0.6%,3,13,-3.2,0.6
CCOc1cc(C2C(C(=O)c3ccccc3)=C(C(=O)OC)Nc3nnnn32)ccc1O (stereo not drawn),0,0.6%,1,10,-2.8,3.6
NS(=O)(=O)c1ccc(CCNC(=O)COC(=O)CCN2C(=O)C3CC=CCC3C2=O)cc1 (stereo not drawn),-12,1.5%,6,26,1.6,0.6
C/C(CC(=O)Nc1ccccn1)=N\NC(=O)c1cccc(C)c1,2,0.1%,-1,-13,-1.3,-0.2
Cc1ccc(C(=O)c2oc3ccc(Cl)cc3c2NC(=O)CN2CCN(C)CC2)cc1,/,-1.3%,-18,13,-4.5,0.1
CC(C)(C)OC(=O)[C@H](Cc1ccccc1)NC(=O)c1ncn2c1c(=O)[nH]c1ccc(Br)cc12,-4,7.7%,-7,-11,-8.0,0.5
Cc1nc(Nc2ccc3c(c2)OCCO3)c2c(C)c(C)sc2n1,-25,4.5%,-30,25,-10,0.0
CC(=O)Nc1c2c(nn1-c1ccc(C)cc1)CS(=O)(=O)C2,2,1.1%,-1,/,-2.2,/
COC(=O)c1ccc(S(=O)(=O)N2CCN(CCO)CC2)n1C,-15,-2.0%,-15,0,-0.9,-0.1
COc1ccc(CC(=O)NC(=S)Nc2cccc(CO)c2)cc1,6,-0.5%,-4,-17,0.2,2.8
